# Screening data (PubChem BioAssay)
# PK Bst: alters activity of Bacillus stearothermophilus pyruvate kinase | partly purified Bacillus stearothermophilus pyruvate kinase, luminescence ATP production; ribose 5-phosphate activator present at AC10 | Potency, µM | actives 1.2% (n = 51,000); in the data active means potency below about 11 µM; inconclusive means mostly about 12 µM to 25 µM; inactive means weaker than that;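 the screen sought inhibitors and activators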;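 also: potency is read from the fitted curve at half-maximal effect; scaled between full activation by ribose 5 phosphate and full inhibition by luteolin; about four in five hits inhibit and the cells do not say which; series up to 57 µM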
# TsaE inh: inhibitors of E. coli YjeE (TsaE) | P0AF67 | purified YjeE, fluorescence polarisation of a bound ADP probe | Potency, µM | actives 0.05% (n = 71,000) | AID 605; active = well fitted falling curve; inconclusive = weaker or top-dose-only fall, or a rising curve; inactive = flat or poorly fitted curve;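 also: top concentration of the series not given in the record; excess ADP was the control for the full effect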
#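 Fluorescence polarization of a BODIPY Texas Red–ADP probe (2 uM) bound to purified YjeE (10 uM) was read after 15 min room-temperature incubation with compounds. Loss of polarization marks inhibitors; ADP serves as titrated control.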
# An asterisk follows results filed as active; i = inactive; u = inconclusive; x = not tested or not shown; & = joins results of further samples.
# Results follow in this order: PK Bst | TsaE inh
N#C/C(=C\c1ccc(O)c(O)c1)C(=O)Nc1ccccc1
 : x | i
CC(C)=CCCC(C)CN(C)CCc1ccccn1 (centres undefined)
 : x | i
COCCCNC(=O)C(Cc1ccccc1)NS(=O)(=O)c1ccc2c(c1)c(=O)n(C)c(=O)n2C (centres undefined)
 : >57 | i
CCOc1ccc(C(C)=O)cc1COC(=O)C1=COCCO1
 : >57 | i
O=C(Nc1ccccc1O)c1cc(S(=O)(=O)N2CCOCC2)c(Cl)cc1Cl
 : x | i
CCOC(=O)c1ccc(NC(=O)CSc2nnc(-c3cccs3)n2C)cc1
 : >57 | i
COC(=O)c1sccc1NC(=O)c1csc(C)c1
 : x | i
O=c1cc(NC2CCCCCC2)[nH]c(=O)[nH]1
 : >57 | i
CCCCOc1ccc(C(=O)NCC(=O)NCC(=O)OCC)cc1
 : >25.6 | x
C=C(C)c1cccc(C(C)(C)NC(=O)NCC2CCCO2)c1 (centres undefined)
 : x | i
CCOC(=O)c1ccc(NC(=O)Cn2nnc(-c3ccccc3C)n2)cc1
 : >57 | i
COc1ccc(CNC(=O)COC(=O)c2n[nH]c3ccccc23)cc1
 : >57 | i
CC1=C(\C=C/C(C)=C/C=C\C(C)=C\C(=O)Nc2ccc(O)cc2)C(C)(C)CCC1
 : x | i
Cc1cc(C(N)=O)c2ccccc2n1
 : >57 | i
CCOc1ccc2nc(-c3ccc(OC)c(OC)c3)cc(C(=O)O)c2c1
 : x | i
O=S(=O)(c1ccccc1)N1CCC2(CC1)CN(C(c1ccccc1)c1ccccc1)C2
 : x | i
O=C(c1ccc(=O)[nH]c1)N(Cc1ccco1)C1(C(=O)NC2CCCCC2)CCCCC1
 : >57 | i
NC(=O)C1CCN(C(=O)CSc2nc3c(c(-c4ccccc4)n2)CCCC3)CC1
 : >57 | i
COc1ccc(C)cc1NC(=O)CSc1nnc(-c2ccco2)n1Cc1ccco1
 : >57 | i
CN(Cc1cccs1)S(=O)(=O)c1cccs1
 : >57 | i
Cc1ccccc1Nc1nn2c(=O)c3ccccc3nc2s1
 : x | i
O=C(O)c1ccc(OCc2occc2C(=O)O)cc1
 : >57 | i
CCSc1nc(=O)n(-c2ccccc2)c(C)c1C(C)=O
 : x | i
Cc1ccc(-c2nc3cc(N)ccc3o2)c(C)c1
 : >57 | i
O=C(COc1ccc(Cl)cc1)N1CCN(c2ncccn2)CC1
 : >57 | i
CC1=CC(C)C2C(=O)N(CCC[N+](C)(C)C)C(=O)C2C1 (centres undefined)
 : >57 | i
C[C@H]1O[C@@H](CC(=O)O)Cc2c1c(O)c1c(O)cc(-c3cc(=O)c4c(=O)c5c(c(=O)c=4c3=O)C[C@H](CC(=O)O)O[C@@H]5C)c(O)c1c2O
 : x | i
Cc1c(C(=O)NCCc2ccccc2)oc2ccc(S(=O)(=O)N3CCC4(CC3)OCCO4)cc12
 : >57 | i
CN1CCc2cc3c(cc2C(=O)Cc2ccc4c(c2C1)OCO4)OCO3
 : x | i
CCOC(=O)c1c(NC(=O)C(F)(OC)C(F)(F)F)sc2c1CCN(C)C2 (centres undefined)
 : >57 | i
C=CCn1c(SCC(=O)NCC(=O)OCC)nnc1-c1ccccn1
 : >57 | i
CN(C)C(=O)Oc1cccc([N+](C)(C)C)c1
 : >25.6&>25.6 | i
CCc1ccc(NC(=O)c2ccc3c(c2)C(=O)N(Cc2ccco2)C3=O)cc1
 : x | i
O=C(CSc1nnc(COc2ccccc2)n1Cc1ccco1)NCc1ccco1
 : >57 | i
Cc1cc(C)n(-c2ccc(C(=O)OCC(=O)NCc3ccco3)cc2)n1
 : >57 | i
c1cncc(-c2nnc(-c3ccco3)o2)c1
 : >57 | i
CCOC(=O)c1cccc(NC(=O)Cn2cnc3c2c(=O)n(C)c(=O)n3C)c1
 : x | i
CCOC(=O)N1CCN(c2c(Nc3cc(C)[nH]n3)c(=O)c2=O)CC1
 : x | i
COCCn1c(=O)c(-c2ccc(OC)cc2)nc2cnc(N3CCOCC3)nc21
 : x | i
CC(=O)N(C)c1ccc(NC(=O)c2ccccc2C(=O)O)cc1
 : x | i
CC1CC(C)CN(c2ncc3c(n2)CC(c2ccc(Cl)cc2)CC3=O)C1 (centres undefined)
 : >57 | i
O=S(=O)(Nc1ccc(F)cc1)N1CCCCCC1
 : >57 | i
COc1ccccc1NC(=O)CCN1C(=O)C2CC=C(Cl)CC2C1=O (centres undefined)
 : >57 | i
CCOc1ccc(OCC)c(NC(=O)CN(C)S(=O)(=O)c2cccc3nsnc23)c1
 : >57 | i
COC(=O)CC1=C(C)C(=O)CC2C(C)(C)CCCC12C (centres undefined)
 : x | i
CCN(CC)CCN1C(=O)C(=O)/C(=C(/O)c2ccc(OC)cc2)C1c1ccco1 (centres undefined)
 : >25.6 | x
COC(=O)c1ccccc1NC(NC(=O)c1ccco1)C(=O)c1ccccc1 (centres undefined)
 : x | i
COc1ccc(C2(NC(C)=O)CCN(C(=O)CCC(=O)O)CC2)cc1
 : >57 | i
O=C(Nc1ccc2c(c1)OCO2)c1ccc(Br)s1
 : u | i
COc1ccc(C(=O)N2CCC[C@@]3(CCN(Cc4ccncc4)C3)C2)cc1
 : x | i
CC(C)CC(NS(=O)(=O)c1ccc2c(c1)oc(=O)n2C)C(=O)NCc1cccnc1 (centres undefined)
 : x | i
Nc1ncn([C@@H]2O[C@@H](CO)[C@@H](O)[C@H]2O)c(=O)n1
 : x | i
COc1cccc(C2C(C(=O)c3cc4ccccc4o3)=C(O)C(=O)N2c2cc(C)on2)c1OC (centres undefined)
 : >57 | i
CC(C)CSc1nnc2[nH]c(=O)cc(N)n12
 : >57 | i
O=C(N1CCOCC1)N1CCOCC1
 : >57 | i
c1ccc2c(c1)OCC(c1nnc3n1-c1ccccc1SC3)O2 (centres undefined)
 : >57 | i
O=C(CSc1nnc(COc2ccccc2)n1-c1ccccc1)c1cccs1
 : x | i
CCCC(=O)Nc1cc(C)c(NC(=O)c2ccccn2)cn1
 : >57 | i
CC(NC(=O)Cc1cccs1)C(c1cccs1)N1CCN(c2ccccc2F)CC1 (centres undefined)
 : >57 | i
Cc1cc(NS(=O)(=O)c2ccccc2)c(C)c(Cl)c1O
 : x | i

# New compounds follow
# Results follow in this order: PK Bst | TsaE inh
Cn1c(=O)c2c(nc(NCCc3ccccc3)n2Cc2ccccc2)n(C)c1=O
 : >57 | i
CCOC(=O)c1[nH]c2ccc(C)cc2c1N=CN(CC)CC
 : >25.6 | x
COCC(=O)/C=C1\Sc2ccccc2N1C
 : >57 | i
OC(CNc1nc2ccccc2s1)c1ccccc1 (centres undefined)
 : >57 | i
CC(C)(C)NC(=O)CN(Cc1cccnc1)C(=O)c1csnn1
 : >57 | i
CCCn1c(=N)c(C(=O)NCc2ccc3c(c2)OCO3)cc2c(=O)n3cccc(C)c3nc21
 : x | i
Cc1cc(C)nc(N2CCCC(C(=O)NCCc3cccc(F)c3)C2)n1 (centres undefined)
 : >57 | i
C[C@H](NCCC(c1ccccc1)c1ccccc1)c1ccccc1
 : x | i
CC(C)(C)n1nnnc1CN1CCC(NC(=O)NC2CCCCC2)CC1
 : >57 | i
O=C1CC(=O)N(CCc2ccccc2)C(=O)N1CCc1ccccc1
 : >57 | i
Cc1ccc(SC(C)C(=O)Nc2ncn[nH]2)cc1 (centres undefined)
 : >57 | i
C=C[C@]1(C)C[C@H](OC(=O)CO)[C@]2(C)C3C(=O)CC[C@]3(CC[C@H]2C)[C@H](C)[C@H]1O (some centres undefined)
 : x | i
COCCCNC(=O)C1CCCCN1S(=O)(=O)c1ccc(F)cc1 (centres undefined)
 : >57 | i
Cc1ccc(SC/C(O)=C(\C#N)c2nc3ccccc3s2)cc1
 : >57 | i
CS/C(=N\S(=O)(=O)c1ccc(N)cc1)NS(=O)(=O)c1cccs1
 : >57 | i
CCCN1CCCc2cc(CN)ccc21
 : >57 | i
O=C(CN1CCN(C(=O)c2cccc(F)c2)CC1)NC1CCCCC1
 : >57 | i
COc1ccc(-c2c(C)nn3c(N4CCC(C(=O)NCCN(C)C)CC4)cc(C)nc23)cc1OC
 : >57 | i
CS(=O)(=O)N(CC(=O)Nc1ccc2c(c1)OCO2)Cc1ccccc1
 : >57 | i
COc1ccc(C2=NOC(Cn3c(Cc4ccc(Cl)cc4)nc4c3c(=O)n(C)c(=O)n4C)C2)cc1 (centres undefined)
 : >57 | i
C#C[C@@]1(O)CC[C@@H]2[C@@H]3CCC4=C(CCC(=O)C4)[C@H]3CC[C@]21C
 : x | i
CCOC(=O)N1CCC(NC(=O)c2cc3c(-c4ccccc4F)nn(C)c3s2)CC1
 : x | i
O=C(Cn1nnc(-c2ccncc2)n1)Nc1ccc2c(c1)CCC2
 : >57 | i
COC(=O)[C@H](C)NC(=O)Nc1ccc(Oc2ccccc2)cc1
 : >57 | i
CN(C)CCOC(=O)c1ccc(N)cc1
 : x | i
COc1ccc(-c2noc(CCC(=O)Nc3ccc4c(c3)OCCO4)n2)cc1
 : >57 | i
COc1ccc(C(=O)NCc2n[nH]c(=S)n2-c2ccccc2)cc1OC
 : >57 | i
CCCCOCCCn1c(-c2ccco2)nc2nc3ccccc3nc21
 : >11.4 | i
CC(=O)Nn1c(COc2ccccc2C)nc2ccccc2c1=O
 : >57 | i
Cc1ccc(/C=N/n2cnc3sc4c(c3c2=O)CCCC4)o1
 : x | i

# Random excerpt: seven records from the list, in no set order.
# Results follow in this order: PK Bst | TsaE inh
COC(=O)[C@H](C)NC(=O)Nc1ccc(Oc2ccccc2)cc1
 : >57 | i
O=C(CN1CCN(C(=O)c2cccc(F)c2)CC1)NC1CCCCC1
 : >57 | i
CC(C)(C)n1nnnc1CN1CCC(NC(=O)NC2CCCCC2)CC1
 : >57 | i
Cc1ccc(/C=N/n2cnc3sc4c(c3c2=O)CCCC4)o1
 : x | i
COCC(=O)/C=C1\Sc2ccccc2N1C
 : >57 | i
Cn1c(=O)c2c(nc(NCCc3ccccc3)n2Cc2ccccc2)n(C)c1=O
 : >57 | i
CCCCOCCCn1c(-c2ccco2)nc2nc3ccccc3nc21
 : >11.4 | i

# Continuation:
molecule,PK Bst,TsaE inh
COC(=O)CC1Sc2ccccc2NC1=O (centres undefined),>57,i
CN(C)C(=O)CSc1nnc(-c2cc(-c3cccs3)nc3ccccc23)o1,>57,i
CC(=O)c1cc(C)ccc1OC(=O)c1cccc2nc(C)oc12,>57,i
Cc1nc(-c2ccccc2O)n(S(=O)(=O)N(C)C)n1,>57,i
CCC(C)[C@H](NC(=O)NC1CC1)C(=O)O (some centres undefined),>57,i
COc1ccc(C(C(C(=O)c2ccco2)N2CCOCC2)N2CCOCC2)cc1 (centres undefined),>57,i
CC(=O)c1cccc(NC(=O)CN(Cc2ccccc2)S(C)(=O)=O)c1,>57,i
COc1ccc(NC(=O)CSc2nccc(C)n2)cc1,>57,i
COC(=O)c1sc(N)c(C(=O)OC)c1COC(=O)C1CC(=O)N(Cc2ccco2)C1 (centres undefined),>57,i
COc1ccc(OCc2nnc3n2N=C(c2ccc(C)cc2)CS3)cc1,x,i
CC1C(=O)OC2C(O)C34C5CC(C(C)(C)C)C36C(OC(=O)C6O)OC4(C(=O)O5)C12O (centres undefined),x,i
Cn1nccc1C(=O)c1ccc(Cl)cc1,>57,i
CCOc1ccc(NC(=O)CN2CCN(CC(=O)Nc3cccc(F)c3)CC2)cc1,>57,i
Cn1c(=O)n(CCc2ccccc2)c(=O)c2c1ncn2Cc1ccccc1,>25.6,x
NC(=O)c1cc2n(n1)C(C(F)(F)F)CC(c1ccco1)N2 (centres undefined),>57,i
COc1cccc(C2CC(c3ccc(Cl)cc3Cl)n3nc(N)nc3N2)c1 (centres undefined),x,i
COCCn1c(=O)c(-c2ccc(OC)cc2)nc2cnc(N3CCNCC3)nc21,x,i
Cc1nc(=S)n(-c2ccccc2)[nH]1,>57,i
O=C(COc1ccccc1)N1CCN(c2ncnc3c2cnn3-c2ccccc2)CC1,>57,i
C[C@H](C(=O)O)c1n[nH]c(=O)c2ccccc12,>57,i
Clc1ccccc1-c1nccc(NCCN2CCOCC2)n1,x,i
COCC(=O)N1CCC2(CC1)CN(C(=O)Nc1ccc(OC)cc1)C2,x,i
c1ccc2c(Cn3ccnc3)c[nH]c2c1,x,i
O=C(c1noc2c1CCCC2)N1CCN(c2ccccc2)CC1,>57,i
O=C(O)C1(Nc2ccc(Cl)cc2)CCCC1,x,i
CSc1nc(C)cc(Nc2ccc(O)c(CN3CCCCC3)c2)n1,x,i
O=C(NC1CCCC1)C(c1ccncc1)N(Cc1cccs1)C(=O)c1csnn1 (centres undefined),>57,i
N#CCCCSc1ncccc1-c1nc2ccccc2[nH]1,>57,i
Fc1ccc(CN(C2=NCCN2)c2c(Cl)cccc2Cl)cc1,x,i
CS(=O)(=O)N1CCN(C(=O)c2ccccc2F)CC1,>57,i
CC1=C(CC(=O)O)c2cc(F)ccc2/C1=C\c1ccc(S(C)=O)cc1 (centres undefined),x,i
COc1ccccc1CNC(=O)CN1CCN(Cc2ccc(Cl)cc2)C1=O,x,i
CC(=O)NCCn1c(SCC#N)nc2ccccc2c1=O,>57,i
COC(=O)c1c(-c2cccc(OC)c2)csc1N,x,i
COC(=O)/C=c1/s/c(=C(\C#N)C(=O)NCc2ccco2)n(-c2ccc(C)cc2)c1=O,>57,i
COC(=O)C1=C(C)NC(C)=C(C(=O)OC)C1c1ccccc1[N+](=O)[O-],>25.6,u
Cc1cnc(CNc2ncncc2-c2ccccc2C#N)cn1,x,i
CC1(C)S[C@@H]2[C@H](NC(=O)C3(N)CCCCC3)C(=O)N2[C@H]1C(=O)O,x,i
CN1CCN(CCCNC(=O)C2CCN(c3nnc(-n4cccc4)s3)CC2)CC1,i,i
CN(C)CCNC(=O)c1ccc2c(c1)N(Cc1ccc(F)cc1)CCS2,x,i

# These rows are one share of the data; the hit share may differ from the screen's.
